# Mtb bLac sens: beta-lactam sensitization of Mtb H37Rv; M. tuberculosis H37Rv growth with meropenem, percent inhibition; hits of this screen are not shown here; inhibition, % at 25 µM; actives 0.27% (n = 330,000); AID 434955;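 active = about 74% or more and at least 40 points above the plate without the antibiotic, then above 30% in a dose series; inconclusive = first-round hits that could not be retested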;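 also: growth measured after seven days incubation then overnight dye step; 0% = bacteria only wells and 100% = bacteria with antibiotic; twin plates without the antibiotic show which effects depend on it; some results filed as inactive read as strong as hits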
# * marks the source's active call; other numbers are inactive results; u = inconclusive. The list is partial (hit frequency here may not be typical).
# Start of the listing, in advance:
SMILES,Mtb bLac sens
C#CCOCCOCCOCCNc1nc(N2CCN(C(=O)[C@H](CCCN=C(N)N)n3cc(C(N)[C@@H](C)CC)nn3)CC2)nc(N2CCN(C(=O)[C@H](CCC(=O)O)n3cc([C@@H](N)CO)nn3)CC2)n1 (stereo not given in full),1.3
Cc1ccc(OCCCC(=O)Nc2ccc3c(c2)OCCO3)cc1,0.0
O=C(OC1CCOC1=O)C1CCN(S(=O)(=O)c2ccccc2)CC1 (stereo not given),-2.5

# The whole of this part, repeating the preview:
SMILES,Mtb bLac sens
C#CCOCCOCCOCCNc1nc(N2CCN(C(=O)[C@H](CCCN=C(N)N)n3cc(C(N)[C@@H](C)CC)nn3)CC2)nc(N2CCN(C(=O)[C@H](CCC(=O)O)n3cc([C@@H](N)CO)nn3)CC2)n1 (stereo not given in full),1.3
Cc1ccc(OCCCC(=O)Nc2ccc3c(c2)OCCO3)cc1,0.0
O=C(OC1CCOC1=O)C1CCN(S(=O)(=O)c2ccccc2)CC1 (stereo not given),-2.5
O=C(c1ccco1)N1CCN(Cc2ccc(F)cc2)CC1,-7.0
Nc1ncnc2c1ncn2[C@H]1CC[C@@H](CO)O1,-5.9
COc1cc(C(=O)NNC(=O)COc2ccc(C)cc2)ccc1OCC(=O)N1CCOCC1,0.9
O=C(Cn1cnc2c(OCc3ccccc3)ncnc21)NCc1ccccn1,-6.1
CC(NC(C)c1ccccc1Cl)C(=O)Nc1cccc(S(=O)(=O)N2CCCCC2)c1 (stereo not given),6.2
CCOc1ccc(NC(=O)COC(=O)CC2CC3CCC2C3)cc1 (stereo not given),-4.3
O=C(NCc1ccc(F)cc1)c1cccc(S(=O)(=O)N2CCOCC2)c1,0.9
c1cc2c(cc1[C@H]1OC[C@H]3[C@@H]1CO[C@H]3c1ccc3c(c1)OCO3)OCO2,1.9
COc1ccccc1N1CCN(C(=O)CSc2nc3ccccc3nc2N2CCC(C)CC2)CC1,-0.5
O=C(Nc1cc(S(=O)(=O)N2CCCCC2)ccc1Cl)C1COc2ccccc2O1 (stereo not given),-4.5
Cc1nc(SCC(=O)Nc2c(C)n(C)n(-c3ccccc3)c2=O)c(C#N)c(C)c1C,1.5
COc1ccc(NC(=O)CN(C)C(=O)c2cc(C3CC3)nn2-c2ccccc2)cc1,2.5
COc1ccc(-c2cc(-c3nc4ccccn4c3NCc3ccccc3)ccc2OC)cc1,81.0
O=S(=O)(Nc1cc(S(=O)(=O)N2CCOCC2)ccc1O)c1ccc2c(c1)OCCCO2,-11.1
CCCCn1c(N)c(N(CCOC)C(=O)c2c(CC)noc2C)c(=O)[nH]c1=O,2.5
CCC(C)c1ccc(N(C(=O)c2ccco2)C(C(=O)NC2CCCC2)c2cccnc2)cc1 (stereo not given),-8.9
COc1cc2cnc(-c3ccccc3)c(-c3cc(OC)c(OC)c(OC)c3)c2cc1OC,62.2
O=C(N1CCOCC1)N1CCc2ccccc21,-1.1
Cc1ccc(NC(=O)CSc2ncccn2)cc1S(=O)(=O)N1CCOCC1,-1.4
CC(NC(=O)CN1C(=O)NC2(CCCC2)C1=O)c1ccc(Cl)cc1Cl (stereo not given),2.7
Cc1cc(C)cc(OCC(=O)OCC(=O)Nc2cc(C)nn2-c2ccccc2)c1,-0.9
Cn1c(CC(=O)Nc2ccccc2Cl)nnc1SCC(=O)NC1=NCCS1,-10.4
CSc1nc(N)nc2c1ncn2CC(=O)N1CCN(c2ccccn2)CC1,-7.3
COCCNC(=O)CN(C(=O)CCC(=O)Nc1ccccn1)c1ccc(OC)cc1,-3.8
CCCCN(C(=O)CSc1ncnc2sccc12)c1c(N)n(Cc2ccccc2)c(=O)[nH]c1=O,-5.8
CCc1ccc(N2C(=O)C(Cl)=C(Nc3ccc(C(=O)N4CCCC4)cc3)C2=O)cc1,8.0
O=C(Nc1cc(S(=O)(=O)N2CCOCC2)ccc1Cl)c1cc2ccccc2o1,-4.8
COc1ccc(-c2ccc3c(c2)S(=O)(=O)c2cccc(C(=O)N4CCN(C5CCCCC5)CC4)c2C3=O)cc1OC,11.5
O=c1cc(-c2ccc(O)cc2)oc2cc(O)c([C@@H]3O[C@H](CO)[C@@H](O)[C@H](O)[C@H]3O)c(O)c12,-3.4
CCCn1c(N)c(C(=O)CN(C)CC(=O)Nc2ccccc2CC)c(=O)[nH]c1=O,-4.4
O=C(Nc1cccc(Cl)c1)C1CCCCC1,-3.9
COC(=O)C1=C(c2ccc(-c3ccccc3)c(F)c2)C[C@@H]2CC[C@H]1N2C(=O)NCc1cccc2ccccc12,-5.3
O=C(/C=C/c1ccc(F)cc1)N1CCc2ccccc2C1,1.1
CC1(c2ccccc2)NC(=O)N(CC(=O)NNC(=O)c2cccc(Cl)c2)C1=O (stereo not given),-5.9
Cc1noc(NS(=O)(=O)c2ccc(NC(=O)/C=C/c3ccccc3)cc2)c1C,42.3
Cc1cccc(CSc2ccc(S(=O)(=O)N3CCCC3)cn2)c1,-14.2
Cc1nn(CC(=O)N2CCN(c3ccccc3)CC2)c(C)c1[N+](=O)[O-],-2.1
CC1CCN(C(=O)COC(=O)c2cc3ccccc3oc2=O)CC1,2.4
O=C(COC(=O)/C=C/c1ccc(Cl)c(Cl)c1)NC1CC1,3.3
Cc1n[nH]c(=O)c2c(NC(=O)COC(=O)Cc3ccc(Cl)cc3Cl)oc(C)c12,-0.2
Cc1ccc(C(=O)N2CCN(c3ccccn3)CC2)cc1Cl,-3.2
O=C(CSc1nnc(Nc2ccccc2)s1)NC1CC1,-5.2
COc1ccc(C(=O)NC(=S)Nc2ccc(S(=O)(=O)Nc3cc(OC)ncn3)cc2)cc1,-3.1
O=S(=O)(c1ccc(SCCOc2ccc(F)cc2)nc1)N1CCCC1,0.2
O=C(O)CCn1cc(-c2ccc(Cl)cc2)nc1-c1ccncc1,-4.1
CNc1cc(NS(=O)(=O)c2ccc(N)cc2)nc(NC)n1,-3.0
CCN(CC)c1ccc(C(=O)NNC(=O)CNC(=O)c2cccs2)cc1,-8.1
# Continued.
SMILES,Mtb bLac sens
COc1ccc(NS(=O)(=O)c2cccc(C(=O)NCC(c3cccs3)N3CCOCC3)c2)cc1 (stereo not given),-8.2
CCC[C@@H](CN1CCC[C@H]1CN1C(N)=NC[C@H]1CC(C)C)N1C[C@@H]([C@H](C)CC)N(CCc2ccc(Cl)c(Cl)c2)C1=N,100.1
C#CCOCCOCCOCCNc1nc(N2CCN(C(=O)Cn3cc(CCCN=C(N)N)nn3)CC2)nc(N2CCN(C(=O)[C@H](CCCCN)n3cc(CCCC)nn3)CC2)n1,-8.7
COc1ccc2c(c1)OC[C@H]1[C@H]2N2C(=O)c3cc(C)ccc3NC(=O)[C@@]2(C)[C@H]1c1ccccc1,25.0
CC(C)=CCC[C@](C)(O)C1CC[C@]2(C)C1C(O)CC1[C@@]3(C)CCC(O)C(C)(C)C3C(O[C@@H]3OC(CO)C(O)C(O)C3O[C@@H]3OC(C)C(O)C(O)C3O)C[C@]12C (stereo not given in full),-5.0
CC1CC1C(=O)N(C)CC(=O)Nc1ccccc1Br (stereo not given),-5.1
O=C(COC(=O)C1CCN(S(=O)(=O)c2ccccc2)CC1)NCCc1ccccc1,-1.4
Cc1ccc(S(=O)(=O)N2CCCCC2C(=O)Nc2ccc(N(C)C)cc2)cc1 (stereo not given),-13.6
O=C(Cc1nc2ccccc2[nH]1)c1ccc(Cl)cc1,3.7
O=C(Nc1ccccc1)c1cc(S(=O)(=O)N2CCCCC2)ccc1N1CCOCC1,-6.5

# For convenience, four of the compounds above:
SMILES,Mtb bLac sens
O=C(COC(=O)C1CCN(S(=O)(=O)c2ccccc2)CC1)NCCc1ccccc1,-1.4
Cc1ccc(S(=O)(=O)N2CCCCC2C(=O)Nc2ccc(N(C)C)cc2)cc1 (stereo not given),-13.6
O=C(Cc1nc2ccccc2[nH]1)c1ccc(Cl)cc1,3.7
O=C(Nc1ccccc1)c1cc(S(=O)(=O)N2CCCCC2)ccc1N1CCOCC1,-6.5

# The list goes on.
SMILES,Mtb bLac sens
CN(CC(=O)NCCCN1CCOCC1)S(=O)(=O)c1ccc(Cl)cc1,-10.6
CCOc1ncccc1C(=O)N1CCN(S(=O)(=O)c2cccs2)CC1,-2.7
COc1ccc(C(=O)COC(=O)Cn2c(C)csc2=O)c(OC)c1,-15.7
CCOC(=O)Cn1c(=O)c2c(nc3n2CCCCN3c2ccc(OCC)cc2)n(C)c1=O,-7.5
C#CCOCCOCCOCCNc1nc(N2CCN(C(=O)[C@H](CCC(=O)O)n3cc([C@@H](N)[C@H](C)CC)nn3)CC2)nc(N2CCN(C(=O)[C@H](CCC(=O)O)n3cc([C@@H](N)CC(N)=O)nn3)CC2)n1,-11.3
O=C(NC(=S)NCCc1ccccc1)c1cccc(Cl)c1,u
CCOC(=O)C1CCN(C(=O)CN2C(=O)NC(C)(c3ccc4cc(OC)ccc4c3)C2=O)CC1 (stereo not given),85.6
COc1ccc(C(=O)NCCc2c[nH]c3ccccc23)cc1OC,-5.7
Nc1cccc2c1C(=O)N(Cc1nnc(-c3ccccc3Br)o1)C2=O,6.7
O=C(COC(=O)c1ccc2ncsc2c1)NCc1ccccc1Cl,49.3
COc1ccc(C(=O)Nc2cc(C)nn2-c2ccc(F)cc2)cc1,0.4
CCOc1ncccc1C(=O)OCCCC(=O)c1ccc(Br)cc1,58.9
CC[C@H]1C/C=C\Cc2ccccc2[C@H](C(=O)C[C@@H](O)CC(C)=O)OC1=O,3.9
COc1ccc(NC(=O)CN(C)C(=O)CN2C(=O)NC3(CCCCC3)C2=O)cc1,-2.4
O=C1CCC(C(=O)Nc2ccc([N+](=O)[O-])cc2)N1 (stereo not given),-3.4
O=C(Cn1ccc(NC(=O)OCc2ccccc2)nc1=O)NCc1ccc2c(c1)OCO2,-3.3
CCOc1ccccc1-n1nnnc1SCC(=O)N1CCCC1=O,6.9
Cc1cc(C)n2nc(SCC(=O)Nc3ccc(F)c(F)c3F)nc2n1,3.1
O=C(NCCC(=O)N1CCN(C(=O)c2ccco2)CC1)c1ccccc1Cl,-2.1
COc1ccc(/C=C/C(=O)Nc2ccc(C)c(S(=O)(=O)N3CCOCC3)c2)cc1,0.5
CC1CCCCC1NC(=O)NC(=O)COC(=O)c1cncc(Br)c1 (stereo not given),1.5
O=C(COC(=O)Cn1[nH]c(=O)c2ccccc2c1=O)NNC(=O)c1ccc(Br)cc1,6.5
COc1ccc(NC(=O)CCN=C2NS(=O)(=O)c3ccccc32)cc1S(=O)(=O)N(C)C,-6.9
O=C(Cn1ccc(NC(=O)OCc2ccccc2)nc1=O)NCCCc1ccccc1,1.7
CC1(C)C(=O)Nc2ccccc2N1C(=O)COC(=O)c1cccnc1,-8.0
COc1cccc(-c2sc3ccc(OC)cc3c2-c2ccc(OCCN(C)C)cc2)c1,100.1
Cc1ccc(S(=O)(=O)N2CC[C@@H]2C(=O)O)cc1,-8.0
CCOc1ccccc1NC(=O)COC(=O)c1nc2nccc(C)n2n1,-4.0
COc1ccc(/C=C/C(=O)OCC(=O)c2ccc[nH]2)cc1,-8.5
Cc1ccc(S(=O)(=O)N2CCN(C(=O)c3ccc(COc4ccccc4)o3)CC2)cc1,-5.5
Cc1ccc(S(=O)(=O)CCC(=O)OCC(=O)c2cc(C)n(C)c2C)cc1,-1.3
Cc1ccc(OCC(=O)Nc2ccccc2C(=O)NC2CC2)cc1,5.4
COc1ccc(/C=N/NC(=O)c2ccc(NS(=O)(=O)c3cccs3)cc2)cc1,-0.8
O=C1N[C@@H](Cc2c[nH]c3ccccc23)COC(=O)[C@H](Cc2ccc(F)cc2)C/C=C\C[C@@H]1CC(=O)N(CCO)Cc1ccccc1,9.7
COc1cc(CC(=O)OCC(=O)NC2CCCCC2C)cc(OC)c1OC (stereo not given),-0.2
N#Cc1cccc(NS(=O)(=O)c2ccc(S(=O)(=O)N3CCOCC3)cc2)c1,-6.5
O=C(N/C(=C/c1ccco1)C(=O)N1CCOCC1)c1ccccc1Br,u
CC(C)(C)OC(=O)N[C@H](C(=O)OC(C)(C)C)c1ccc2ccccc2c1,4.5
CC(=O)NCCc1ccc(C(=O)COC(=O)C2CCCCC2)cc1,-0.9
CC(C)(C)OC(=O)C[C@@H]1C/C=C\C[C@@H](CC(=O)N[C@H](CO)Cc2ccccc2)C(=O)NCCOC1=O,-0.6
CC(C)C(NS(=O)(=O)c1cccc(C(F)(F)F)c1)C(=O)NCc1cccs1 (stereo not given),1.4
Cc1ccc(S(=O)(=O)N2CCOCC2)cc1-c1n[nH]c(=S)n1-c1ccccc1,-2.8
COc1ccc(CNC(=O)CC2C[C@H](C(=O)N3CCOCC3)[C@@]3(C)c4[nH]c5ccccc5c4CCN3C2=O)cc1OC (stereo not given in full),-6.6
CC(=O)Nc1ccc(NC(=O)c2ccc(OCc3c(C)noc3C)cc2)cc1,3.9
CC(=O)Nc1ccc(SCC(=O)NCC2(N3CCCCC3)CCCCC2)cc1,2.7
CCOc1ccc(OCCC(=O)N(CC)CC(=O)Nc2c(F)cccc2F)cc1,-12.8
CC(=O)Nc1ccc(NC(=O)C(C)OC(=O)C23CC4CC(CC(Cl)(C4)C2)C3)cc1 (stereo not given),-7.7
CC(NS(=O)(=O)c1ccccc1Cl)C1CC2CCC1C2 (stereo not given),-4.5
Nc1ccccc1O,96.8
O=C(Nc1cccc(S(=O)(=O)N2CCCCC2)c1)C1CCCN1S(=O)(=O)c1ccccc1F (stereo not given),-4.0
# (listing goes on)
SMILES,Mtb bLac sens
CCC(=O)c1cn(CC(=O)Nc2cccc(OC)c2)c2ccccc12,-2.4
CC(C)NC(=O)N(C)C[C@@H]1Oc2ccc(NC(=O)Nc3ccc(C(F)(F)F)cc3)cc2CC(=O)N([C@H](C)CO)C[C@@H]1C,14.9
Cc1c(C2(O)CCCCC2)[nH]c2ncccc12,-8.5
Cc1cc(C)c(NC(=O)COc2cccnc2[N+](=O)[O-])c(C)c1,-7.4
Cc1ccccc1NC(=O)Cc1nc(COC(=O)c2cc(Br)ccc2O)cs1,-3.5
COc1ccc(S(=O)(=O)N2CCN(c3nn(C)c(=O)n(C)c3=O)CC2)cc1,-8.6
COc1ccc(C[C@](C)(N)C(=O)O)cc1OC,1.8
COc1cccc(-c2ncc3ccccc3c2COC(=O)c2ccccc2C(=O)O)c1,-3.6
N#Cc1ccc(C(=O)OCC(=O)Nc2cccc(S(=O)(=O)NC3=NCCC3)c2)cc1,-5.7
C=C(C)c1ccccc1,11.1
